Assay outcomes from PubChem.
PrP UTR inh = inhibition of PrP 5' UTR reporter expression. 340,000 compounds, 0.35% hits. inhibition, % (test concentration not listed). AID 488862. cell-based PrP 5' UTR mRNA reporter, plate reader;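 active = every replicate at 50% or more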;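 also: 0 = median of the neutral control wells; tested in H4 reporter cells; numbers are from one replicate; inactives centre near -14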
Autofluor counter = flagged as autofluorescent in microsphere protease counterscreen; compound autofluorescence counterscreen, microsphere flow cytometry; stronger effect = higher value; fluorescence intensity (no concentration beside the values); AID 624483; 360,000 compounds, 3.1% hits;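 active = at least 3 SD above the mean of all compounds, about 16000 in these data; inconclusive = too few beads counted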;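 also: 100 nL of 1 mM stock went into each well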
RN4220 kill = kills Staphylococcus aureus RN4220; S. aureus RN4220 growth, OD600, 16 h; inhibition, % (test concentration not listed); 330,000 compounds, 0.33% hits; AID 1259311;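 active = z-score of -3 or lower and OD600 up to 0.18 on both plates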;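 also: plate controls were untreated cells for no effect and reference antibiotic for full effect; stock transfer was 100 nL into about 80 µL; one replicate is shown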
BJeLR viability = BJeLR cell viability loss; AID 1554; 300,000 compounds, 0.17% hits; BJeLR (HRASV12) viability, CellTiter-Glo ATP luminescence, 48 h; reference of the scale not given here; inhibition, % (test concentration not listed);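 active = replicate mean above 50%; inconclusive = above 50% but judged a plate artefact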;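 also: 50 nL library stock added to about 25 µL; numbers are from one replicate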
Mtb hypoxia rep = Mtb hypoxia fluorescent reporter inhibition. M. tuberculosis hypoxia-regulated fluorescent reporter, fluorescence. AID 1159583. fluorescence inhibition, % (concentration not given with the values). 300,000 compounds, 0.1% hits;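 active = 35 to 45% if threefold the growth effect, above 45% if 1.5-fold the growth effect; inactive = the rest, general growth blockers included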;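 also: wells of about 50 µL received 100 nL stock; 0% = vehicle wells and 100% = reference inhibitor wells; whole bacteria with a GFP reporter of the hypoxia response; strong numbers were not always called active; many hits fall short of the cut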
Sa ugtP lethal = growth inhibition of S. aureus ugtP deletion strain. S. aureus RN4220 ugtP deletion, OD600 growth, 16 h; some inactives read as strong as hits. growth inhibition, % (concentration not given with the values). 330,000 compounds, 0.54% hits;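 active = z-score under -3 and OD600 up to 0.15 on both plates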;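 also: plate controls were untreated wells for no effect and antibiotic for full effect; wells of about 80 µL received 100 nL stock; the first replicate is given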
Mtb hypoxia rep growth = also measured in Mtb hypoxia rep; calls as there; growth inhibition, %; measured here: M. tuberculosis growth (absorbance);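 0% = vehicle and 100% = reference antibiotic; read after six days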
An asterisk follows results filed as active; ? = inconclusive; . = no result given; & = joins results of further samples.

The line under a structure holds: RN4220 kill	Autofluor counter	PrP UTR inh	Sa ugtP lethal	Mtb hypoxia rep growth	BJeLR viability	Mtb hypoxia rep
O=C(c1cc([N+](=O)[O-])ccc1N1CCOCC1)N1CCOCC1
 : 3.7	1932	5	14	1	-2	-3
COc1ccc(NC(=O)c2ccc(-n3cnnn3)cc2)c([N+](=O)[O-])c1
 : -0.9	6258	-3	-1	2	-6	-10
CCC(=NCCc1ccc(OC)c(OC)c1)c1ccccc1O
 : -2.3	2958	-19	-5	-3	-1	-1
Cc1cc2cc(CN(CCN(C)C)C(=S)NCc3ccco3)c(=O)[nH]c2cc1C
 : 0.4	3685	-2	-2	3	6	8
NC(=O)[C@H]1CC2(CC(c3cccc(NC(=O)[C@H]4CCC(=O)N4)c3)=NO2)CN1C(=O)c1ccccc1 (stereo partly drawn)
 : .	3495	-18	.	.	8	.
C[C@H](NC(=O)c1nc[nH]c1C(=O)N[C@@H](C)C(=O)OCc1ccccc1)C(=O)OCc1ccccc1
 : .	3105	-20	.	.	4	.
Cc1cc(NS(=O)(=O)c2ccc(NC(=O)COc3ccccc3C(C)C)cc2)no1
 : 4.1	4414	-7	11	7	2	6
COc1cccc(-n2c(N)cc(=O)nc2SCC(=O)Nc2cc(C)on2)c1
 : 0.8	5818	-4	2	-2	-2	-1
O=C(CN1CCN(S(=O)(=O)c2ccc(Cl)c(C(F)(F)F)c2)CC1)NC(=O)NC1CCCCC1
 : 4.8	3700	-23	10	3	.	11
COc1ccc(N2C(=O)C(Cc3ccccc3)NC2=S)cc1 (stereo not drawn)
 : 0.1	5016	-29	1	8	4	1
Cc1ccc(OCc2cc(C(=O)NCc3cn4ccccc4n3)no2)cc1C
 : -3.3	5971	-11	7	2	9	7
CCOc1cc(S(=O)(=O)N2CCN(S(=O)(=O)CC)CC2)c(OCC)cc1-n1cnnn1
 : 3.5	6117	-12	4	2	-7	1
O=C(Nc1nccs1)C1C2CC3OC(=O)C1C3C2 (stereo not drawn)
 : 1.9	5046	-19	3	.	2	.
Oc1[nH]c2ccc(Br)cc2c1N=Nc1ccc(C(F)(F)F)cn1
 : -12	2000	-20	-33	5	13	-2
O=C(NNC(=O)c1nn(-c2ccc(F)cc2)ccc1=O)c1ccc(C(F)(F)F)cc1
 : 1.4	6128	-9	5	-1	-6	-7
O=C(C(=O)N1CCOCC1)c1cn(CC(=O)N2CCc3ccccc3C2)c2ccccc12
 : 2.4	4264	-9	3	4	12	14
CC(C)C(NC(=O)c1c(F)cccc1F)C(=O)NCc1ccc(S(=O)(=O)N2CCOCC2)cc1 (stereo not drawn)
 : 1.5	7904	-15	3	2	.	-1
O=C(CCCCn1cnc2c(=S)nc[nH]c21)Nc1ccc(C(=O)O)c(O)c1
 : 4.8	2884	-8	1	-3	.	-15
Cc1ccc(C(=O)N2CCC3(CC2)NCCc2[nH]cnc23)cc1C
 : 0.5	6411	-4	3	-3	4	7
O=C(NCc1ccccc1)c1ccc[n+]([O-])c1
 : 2.2	3782	-14	4	-3	15	7
Cc1ccc(NS(=O)(=O)c2c(C(=O)N3CCCC3)c(C)n(C)c2C)cc1
 : 2.8	3971	-30	4	0	6	14
O=C(NC1CC1)c1cc2c(s1)-c1ccccc1OC2
 : 5.8	6283	-52	-7	5	12	-3
CCCC[n+]1ccn(-c2nc3ccccc3nc2[N-]S(=O)(=O)c2ccc(Cl)cc2)c1
 : 4.6	5805	-1	14	4	3	9
O=C(NCc1ccc2c(c1)OCO2)c1cc2ccccc2o1
 : 1.8	3185	0	-1	5	-30	19
Cc1ccc(N(C(=O)c2csnn2)C(C(=O)NC2CCCCC2)c2ccncc2)cc1 (stereo not drawn)
 : 0.2	3622	-10	4	-16	2	-14
COc1ccc(CCN(Cc2nc3ccccc3c(=O)[nH]2)C(=O)C2CC2)cc1
 : 4.9	1894	8	-1	2	-3	5
Cc1cc(=O)oc2cc(OCC(=O)Nc3ccc(F)cc3F)ccc12
 : 9.6	5724	-8	12	3	.	4
COC(=O)c1c(-c2c(Cl)cccc2Cl)noc1NC(=O)NN1CCCCC1
 : 11	6312	-15	29	1	-6	4
Cc1c(NC(=O)Cn2nc(C(F)(F)F)c3c2CCCC3)c(=O)n(-c2ccccc2)n1C
 : -3.2	2427	-15	12	.	14	.
O=C(NCCc1ccc(F)cc1)Nc1ccccc1
 : -1.7	4578	-5	0	5	-6	0
COc1ccc(CC2(CO)CCN(S(=O)(=O)c3sccc3C)CC2)cc1
 : 3.1	4205	6	8	2	-1	12
O=C(C1=C[C@H](c2coc3ccccc3c2=O)C[C@H](OCCCCO)O1)N1CCN(Cc2ccc3c(c2)OCO3)CC1
 : .	3545	-5	.	.	-8	.
O=C(O)C[C@]1(C(=O)Nc2ccc(F)cc2)CC(/C=C/c2ccccc2)=NO1
 : -0.1	3775	-5	19	7	1	6
COc1cc(C(=O)NCCNc2nc3ccc(C)cc3cc2C#N)cc(OC)c1OC
 : 0.0	3398	-8	-1	-3	-12	-3
CCOC(=O)C1CCN(C(=O)c2ccc(N(C)S(C)(=O)=O)cc2)CC1
 : 6.9	9866	-11	7	-3	4	2
Cc1[nH]c2ccc(Cl)cc2c(=O)c1CN1CCCC1
 : 3.7	3569	-11	2	13	-2	-4
CS(=O)(=O)c1cccc(-c2nnc(NC(=O)c3ccc4ncsc4c3)o2)c1
 : 16	?	-6	-1	-7	1	4
O=C(NN=Cc1ccc(O)cc1O)c1ccc(CN2C(=O)c3cccc4cccc2c34)cc1
 : 16	.	.	1	3	.	7
Cc1nn(Cc2ccccc2)c(Cl)c1C(=O)OCC#N
 : 7.0	4420	-29	5	-5	-19	5
CCN(CC)S(=O)(=O)c1ccc(NC(=O)CNC2CCCCC2)cc1
 : 2.7	3971	.	10	-2	-1	-1
CN(CCOc1ccccc1)CC(=O)Nc1ccc([N+](=O)[O-])cc1Cl
 : 2.4	4268	-15	-2	5	0	10
Cc1cccc(NC(=S)N2CCN(S(=O)(=O)c3ccc(F)cc3)CC2)c1
 : 0.9	6162	-16	13	3	-1	6
O=C(CN1C(=O)C(=O)N(C2CCCC2)C1=O)Nc1cc(Cl)ccc1[N+](=O)[O-]
 : 8.7	6538	-22	13	4	.	3
O=C1NC(C(F)(F)F)(C(F)(F)F)N=C2SC=CN12
 : 6.5	4475	-15	3	-10	10	-3
Cc1cc(C)n2cc(-c3ccc(Cl)cc3)c(C(=O)O)c2n1
 : 3.8	2351	-96	0	3	2	13
O=C(N=C1c2ccccc2CN1c1ccc(F)c(Cl)c1)c1cccnc1Cl
 : 4.0	.	.	-25	18	2	18
Cc1oc(-c2ccccc2Cl)nc1CS(=O)(=O)CC(=O)N1CCOCC1
 : 8.4	6258	7	9	4	5	5
COc1cccc(C(=O)NCC(=O)N2CCC3(CC2)NCCc2[nH]cnc23)c1OC
 : 2.6	6255	-27	2	4	-6	2
CC(=O)NC(=NOCc1ccc(Br)cc1)c1nonc1NC(C)=O
 : 4.1	.	.	-2	1	.	5
COc1cccc(CNC(=O)Cn2cccc2C(=O)c2ccccc2C)c1
 : 1.4	5187	-16	-1	7	-1	-5
O=C(Cn1c[n+](CC(=O)c2ccc([N+](=O)[O-])cc2)cn1)c1ccc([N+](=O)[O-])cc1
 : 4.7&7.0	4397&4439	-27&0	-1&-2	6&12	11&2	-7&-2
O=c1c(C(c2c(O)nc3n(c2=O)CCS3)c2cccc3ccccc23)c(O)nc2n1CCS2
 : -0.2	4728	-16	-11	.	7	.
COc1ccc(N(CC(=O)NCCC2=CCCCC2)S(=O)(=O)c2ccccc2)cc1
 : 4.8	6368	-14	1	-3	5	-10
CC[C@@]12C(=O)N(c3cccc(F)c3)C(=O)N1C(c1ccc(Cl)cc1)C1C(=O)N(C3CCCCC3)C(=O)C12 (stereo partly drawn)
 : 0.1	.	.	-1	-3	.	7
CCN(CC)S(=O)(=O)c1ccc(C)c(C(=O)Oc2cccc(-c3cnc4ccccc4n3)c2)c1
 : 1.8	2119	-56	6	-7	0	11
COc1ccc(NCc2nc3ccccc3n2C)cc1
 : 0.5	3700	-76	7	-1	2	-3
Cc1cccc(-c2nnc(NC(=O)c3ccc(Cl)cc3)o2)c1
 : 99*	16877*	-19	95*	7	0	2
COc1cc(CCC(=O)OCC(=O)Nc2ccccc2F)cc(OC)c1OC
 : -2.1	5610	-3	5	8	8	2
Cc1ccc(-n2nc3c(c2NC(=O)c2ccco2)CS(=O)C3)c(C)c1 (stereo not drawn)
 : 2.1	?	-11	1	2	-13	11
Cc1ccc(CN2C(=O)NC(Cc3c[nH]c4ccccc34)C2=O)cc1 (stereo not drawn)
 : 6.5	8772	-31	-4	11	5	-7

(further entries)
The line under a structure holds: RN4220 kill	Autofluor counter	PrP UTR inh	Sa ugtP lethal	Mtb hypoxia rep growth	BJeLR viability	Mtb hypoxia rep
CCN(Cc1cccs1)C(=O)CN1CCN(S(=O)(=O)c2ccc3c(c2)OCCCO3)CC1
 : 2.8	?	-3	4	1	.	0
COc1cccc(C2=NOC(C(=O)NCCN3CCOCC3)C2)c1 (stereo not drawn)
 : -1.3	11015	-13	-6	8	-13	1
O=C(/C=C/c1ccc(Cl)cc1Cl)Nc1cccc(S(=O)(=O)NC2=NCCC2)c1
 : 1.1	4203	-7	-7	8	4	8
O=C(OCC(=O)c1ccco1)c1ccc2ncsc2c1
 : 6.9	4536	-20	-2	6	2	4
CC(C)(C)Nc1nc(NCc2cccnc2)nc(N2CCOCC2)n1
 : 1.8	4252	-10	-3	-1	3	-7
Cc1cc(Cl)c(OCCCNCc2ccccc2)c(Br)c1
 : 14	6234	-6	-30	6	-3	9
Cc1ccccc1NC1=NS(=O)(=O)c2ccccc21
 : -1.1	5293	-24	-2	3	-1	-1
O=C1NN(c2ccccc2)C(=O)/C1=C\c1ccc(-c2cc([N+](=O)[O-])ccc2O)o1
 : 1.4	4433	-7	-4	-5	-2	2
C=CCn1c(SCC(=O)Nc2ccc(F)cc2)nc2cc(C(=O)O)ccc2c1=O
 : 2.6	3348	-20	5	-5	-3	9
Cc1ccc(S(=O)(=O)N2C(c3cccs3)CC=C(C(=O)O)C2c2ccc(F)cc2)cc1 (stereo not drawn)
 : 23	.	.	21	8	.	7
COC(=O)C1C(c2ccccc2)NC(=O)N(Cc2ccccc2)C1C (stereo not drawn)
 : 1.2&6.4	.	.	-3&2	16&10	.	3&15
COc1cc(CC(=O)NCC2COc3ccccc3O2)cc(OC)c1OC (stereo not drawn)
 : 1.6	4001	4	8	4	6	4
Cc1ccc(C)c(N=Nc2ccc(O)c3ncccc23)c1
 : 18	1600	48	-20	2	10	-14
O=c1oc2c(CN3CCOCC3)c(O)ccc2c2c1CCCC2
 : 27	3103	-9	21	2	3	5
O=[N+]([O-])c1ccccc1/C=C/C=N/n1c(-c2ccco2)n[nH]c1=S
 : .	2055	-8	.	.	-1	.
Cc1cc(NC(=O)CSc2cc(C)c3ccccc3n2)no1
 : 2.7	2979	-11	4	5	.	16
COCCNC(=O)Cn1cc(/C=C(\C#N)C(=O)NC2CCCC2)c2ccccc21
 : 3.1	3798	-20	2	7	-5	2
Cc1cccc(C(=O)NCC(=O)OCC(=O)N2CCN(S(=O)(=O)c3ccc(C)cc3C)CC2)c1
 : 2.2	?	.	1	4	.	9
COCCCNC(=O)CC(=O)N/N=C\c1ccc(SC)cc1
 : .	3749	-37	.	.	-1	.
Cc1nnc(C)n1N=Cc1ccc(C(=O)O)cc1
 : 3.4	.	.	5	7	.	3
CCCCCn1c(SCC#N)nc2cc(C(=O)NCC3CCCO3)ccc2c1=O (stereo not drawn)
 : 1.0	4344	-5	-3	6	-3	1

In a second layout: entries from further up.
mol,RN4220 kill,Autofluor counter,PrP UTR inh,Sa ugtP lethal,Mtb hypoxia rep growth,BJeLR viability,Mtb hypoxia rep
Cc1nnc(C)n1N=Cc1ccc(C(=O)O)cc1,3.4,.,.,5,7,.,3
CCCCCn1c(SCC#N)nc2cc(C(=O)NCC3CCCO3)ccc2c1=O (stereo not drawn),1.0,4344,-5,-3,6,-3,1

An excerpt from above with just Mtb hypoxia rep:
Structure	Mtb hypoxia rep
COc1ccc(N(CC(=O)NCCC2=CCCCC2)S(=O)(=O)c2ccccc2)cc1	-10
Cc1cccc(-c2nnc(NC(=O)c3ccc(Cl)cc3)o2)c1	2
